Assay outcomes: PubChem, several laboratories
Env fusion inh – HIV envelope-mediated fusion inhibition; HeLa-JRFL Env/CEM21 cell fusion, luciferase; inhibition, % at 12.3 µM; hit rate 1.1% among 360,000;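 active = mean replicate inhibition score of at least 50 and every replicate individually at or above 50; inconclusive = only one of the two criteria met; inactive = mean below 50 and not all replicates reaching 50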;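 also: 0% = plate neutral controls and 100% = maraviroc near 300 nM; one replicate is shown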
CSC inhib – cancer stem cell inhibition | inhibition, % at 7.5 µM | hit rate 1.1% among 300,000 | cancer stem cell-like cells viability, luminescence | AID 2717;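 active = mean at 75% or more and at least half the replicates too; inconclusive = mean and replicates disagree; tested in HMLE shEcad cells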;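 also: 0% = median of negative and 100% = median of positive control wells; the first replicate is given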
MT1-MMP act inh – inhibitors of human MT1-MMP activation; P50281; HT1080 RFP-PRO-GFP cells, GFP/RFP ratio fluorescence, overnight; percent of plate control window, DMSO zero; GFP/RFP ratio change, % at 20 µM; hit rate 0.061% among 360,000; AID 651647;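 active = GFP/RFP ratio change of at least 30% with cell ATP level not reduced by more than half and red fluorescence within 50% of control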; also: strong numbers were not always called active
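Material – HT1080 RFP-PRO-GFP cells · Control set – DMSO wells and RFP-L50D-GFP cells · Incubation – overnight cell settling, then overnight compound exposure, 37 °C, 5% CO2 · Compound dosing – single-point 20 µM compound, 1% DMSO · Read-out – GFP/RFP fluorescence ratio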
Rce1 inh – yeast Ras-converting enzyme inhibition | Q03530 | yeast membranes, quenched prenylated peptide cleavage fluorescence | calls only | hit rate 0.27% among 290,000;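 active = fall in fluorescence gain of 50% or more versus controls, with final raw signal at or below 3038400; inconclusive = same 50% fall but final raw signal above 3038400; inactive = fall in fluorescence gain under 50%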;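 also: plate controls were neutral control wells for no effect and wells lacking membranes for full effect; tested at 10 µM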
Target sequence (Q03530 whole entry, looked up): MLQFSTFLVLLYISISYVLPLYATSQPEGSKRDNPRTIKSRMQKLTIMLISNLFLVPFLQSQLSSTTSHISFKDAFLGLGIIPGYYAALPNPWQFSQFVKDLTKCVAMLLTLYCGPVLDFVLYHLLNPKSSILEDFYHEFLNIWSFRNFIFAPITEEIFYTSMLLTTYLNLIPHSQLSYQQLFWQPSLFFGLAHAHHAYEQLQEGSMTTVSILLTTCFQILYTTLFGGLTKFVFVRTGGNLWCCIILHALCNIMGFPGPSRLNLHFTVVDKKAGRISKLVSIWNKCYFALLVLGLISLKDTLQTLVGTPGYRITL
UUG fidelity – modulators of start codon recognition fidelity in yeast; hit rate 0.13% among 350,000; activity score, % at 18.7 µM; S. cerevisiae UUG-firefly luciferase reporter, luminescence/redox ratio;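 active = replicate mean at a twofold rise or more, about +100% in these data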;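 also: firefly luciferase made from a UUG start codon reports start codon fidelity; reporter light over untreated wells divided by growth signal over untreated wells; some hits fall short of that in this replicate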
eIF4H inh – inhibitors of RNA binding by human eIF4H. Q15056. eIF4H fluorescence polarization binding assay. inhibition, % at 35 µM. hit rate 0.94% among 290,000. AID 2012;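 active = 50% or more with normal probe brightness, or confirmed in later tests; inconclusive = above 50% with abnormal brightness, or retests that disagree; inactive = below 50% or failed in later tests; about a fifth of its hits are not listed in these tables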;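 also: calls also rest on retests at 20 µM and on dose response follow-up; 0% = protein and probe with vehicle and 100% = probe without protein; strong numbers were not always called active; many hits fall short of the cut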
PABP polyA inh – PABP-poly(A) binding inhibition. P11940. PABP-poly(A) RNA binding, fluorescence polarization. inhibition, % at 35 µM. hit rate 1% among 290,000;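 active = 50% or more with normal probe brightness, or confirmed in later tests; inconclusive = above 50% with abnormal brightness, or retests that disagree; inactive = below 50% or failed in later tests; about a fifth of its hits are not listed in these tables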;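 also: calls also rest on retests at 20 µM and on dose response follow-up; controls were probe without protein and protein plus probe with vehicle; some compounds called inactive have numbers as strong as hits; many hits fall short of the cut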
PABP polyA inh retest – also measured in PABP polyA inh; calls as there; inhibition, %; compound at 20 µM; confirmation repeats;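 mean of two retest wells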
MT1-MMP act inh RFP – recorded beside MT1-MMP act inh, whose call it bears; RFP signal change, %; measured here: RFP expression control read;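 0 = vehicle wells; hits needed this value within 50% of zero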
An asterisk follows results filed as active; i = inactive; ? = inconclusive; / = not tested or not shown; + = active, no number.

SMILES	Env fusion inh	CSC inhib	MT1-MMP act inh	MT1-MMP act inh RFP	Rce1 inh	UUG fidelity	eIF4H inh	PABP polyA inh	others
N#Cc1c(-c2cccs2)nc(SCC(=O)c2cccs2)[nH]c1=O	/	-6	-18	6	i	-11	41	33
CC1C/C(=N\Nc2ccc(S(N)(=O)=O)cc2[N+](=O)[O-])CC(C)(C)C1 (centres undefined)	-14	37	-2	-6	i	24	9	-17
Clc1ccc(-c2nnc3n2-c2ccccc2SC3)cc1	11	/	1	0	i	/	10	1
COc1ccc(OC)c(C(=O)c2ccc(C(=O)Nc3ccc4ccccc4c3)cc2)c1	/	-6	-8	-18	i	/	-4	3
Clc1ccc(-c2nc(-c3ccncc3)no2)c(Cl)c1	-51	-4	0	-1	i	-20	/	/
Oc1ccc(CN2CCN(c3ccccc3)CC2)c2cccnc12	/	-6	-7	-11	i	-23	1	1
Cc1ccc(S(=O)(=O)c2nc(NCc3ccc4c(c3)OCO4)sc2Cl)cc1	27	-4	0	-3	i	-3	-9	-21
COc1cccc(/C=C/C(=O)NCC2CCCCC2)c1	24	-1	-1	0	i	-4	-5	-8
CC(CCc1ccccc1)NC(=O)COC(=O)C12CC3CC(CC(Br)(C3)C1)C2 (centres undefined)	-59	-6	-2	1	i	11	4	2
CC1(C(=O)NCC2CC2)CCN1C(=O)C/C=C/c1ccccc1 (centres undefined)	-16	/	-5	4	/	-25	/	/
Cc1cc([N+](=O)[O-])ccc1NCc1cccc([N+](=O)[O-])c1	-25	0	-7	-11	i	0	-1	2
O=S1(=O)CCOC[C@H](Cc2ccccc2)N1Cc1ccc(F)cc1	18	15	-3	-7	i	20	/	/
COc1ccccc1CNC(=O)COc1ccc2c(c1)CCC2	23	-10	2	3	i	/	-5	-6
O=S(=O)(Nc1ccc(S(=O)(=O)N2CCCC2)cc1)c1ccc(F)cc1	-3	4	0	7	i	7	-13	-3
CC(C)Nc1ccc(C(CC(N)=O)NC(=O)Cc2ccc(Br)cc2)cc1[N+](=O)[O-] (centres undefined)	-2	43	15	7	i	-14	8	20
CCOC(=O)N/N=C\c1ccc(OC/C=C/c2ccccc2)cc1	-7	-10	-1	-2	i	-23	0	-3
COc1ccc(CCN2C(=O)NC(NS(=O)(=O)c3ccccc3)(C(F)(F)F)C2=O)cc1OC (centres undefined)	-15	-5	3	3	i	5	1	4
C/C(=N\NC(=O)c1ccc(COc2ccccc2)cc1)c1ccncc1	2	-10	8	6	i	/	2	-11
CCCCNS(=O)(=O)c1ccc(NC(=O)C(Sc2ccccc2)c2ccccc2)cc1 (centres undefined)	/	53	-27	-27	i	-15	2	-12
Clc1cccc(-c2nc3ccc(Cl)cn3c2Cc2ccccc2)c1	-55	/	-5	-7	/	-30	/	/
COc1cc2c(cc1OC)CN(CC(=O)Nc1ccccc1SC)CC2	25	-9	2	-3	i	/	-3	11
CCOC(=O)CSc1cc(CSc2ccccc2)nc(-c2ccccc2)n1	/	-1	5	3	i	/	-3	6
CCOC(=O)C(C)Oc1ccc(C2NC(=O)NC(C)=C2C(=O)Nc2ccccc2C)cc1 (centres undefined)	/	/	-2	-5	i	-15	-16	4
Cc1ccc(C(=O)Nc2cnc3sc(C)nn3c2=O)cc1	/	4	3	3	i	-9	0	2
CCC(COC(=O)Nc1cccc(C)c1)NC(=O)OCC(C)C (centres undefined)	/	/	4	-5	i	-5	1	9
CCOC(=O)COc1cc(-n2c(=S)[nH]c3cc(OC)c(OC)cc3c2=O)c(Cl)cc1Cl	-10	3	3	2	i	/	-3	1
Oc1ccc(-c2csc(Nc3ccccn3)n2)c(O)c1	-214	103*	1	-2	/	-18	-6	8
Cc1ccccc1NC(=O)/C(C#N)=C\c1cc(C)n(-c2ccc(C(=O)O)cc2)c1C	0	0	0	0	i	/	?	40*	PABP polyA inh retest=98*
CC1(C(=O)N2CC3(CC(c4cccc(NC(=O)CC(c5ccccc5)c5ccccc5)c4)=NO3)C[C@@H]2C(N)=O)CC1 (some centres undefined)	-4	-6	0	-1	i	-7	-9	3
CC(=O)c1ccc(NC(=S)NC(C)CCc2ccccc2)cc1 (centres undefined)	20	22	5	1	i	/	-16	1
Cn1cnc2c(SCc3ccccc3)ncnc21	-29	/	-1	-1	/	-18	/	/
FC(F)(F)Oc1ccccc1C(c1nnnn1-c1ccc2c(c1)OCCO2)N1CCN(C/C=C/c2ccccc2)CC1 (centres undefined)	13	/	-1	-11	/	-2	/	/
O=C(Cc1ccsc1)Nc1ccc(S(=O)(=O)C(F)F)cc1	1	-1	5	-1	i	-15	6	-4
CC(On1nnc2ccc(S(=O)(=O)N3CCOCC3)cc21)C(=O)Nc1ccccc1F (centres undefined)	-1	-12	-3	-2	i	6	/	/
CCSc1nc(-c2ccc(OC)cc2)cc(-c2ccccc2)c1C#N	/	-7	-4	-4	i	-14	4	-2
CCCCn1c(=O)[nH]c(=O)c2c1nc(-c1ccc(C#N)cc1)n2C1CCCC1	/	-18	-7	-6	i	-12	-1	6
CCN(CC)S(=O)(=O)c1cc(NC(=O)COc2ccc(C#N)cc2OC)ccc1C	11	-32	-1	-15	i	8	-2	-3
O=C(COc1ccc(S(=O)(=O)N2CCOCC2)cc1Cl)NC1CCCCC1	13	2	2	-1	i	-4	-2	-9
Cc1ccc(C(=O)N/C(=C\c2ccc(F)cc2)C(=O)NCc2ccncc2)cc1	/	7	-1	3	i	-13	6	4
O=C(c1cccc(S(=O)(=O)N2CCCC2)c1)N(Cc1ccco1)C1CCS(=O)(=O)C1 (centres undefined)	12	-18	-2	-3	i	7	-6	3
O=C1[C@H]2[C@H]3[C@H](O)[C@H](O)C/C(=N\OC[C@@H](O)COCc4ccco4)[C@@H]3CC[C@H]2C(=O)N1c1ccc(F)cc1F	/	6	/	/	i	/	2	13
CCCCCCN1C[C@H](n2cc(COC(=O)c3ccccc3)nn2)[C@@H](O)C[C@@H]1c1ccc(C)cc1	33	/	0	-4	/	5	/	/
CCS(=O)(=O)c1ncc(CO)n1CCc1ccccc1	2	-6	-2	2	i	5	-4	-5
O=C(Nc1ccc(Cl)cn1)C1CCCN1S(=O)(=O)c1ccccc1 (centres undefined)	/	-4	0	-9	i	-8	0	-3
O=S(=O)(Nc1nc2ccccc2nc1NCC1CCCO1)c1cc(Cl)ccc1Cl (centres undefined)	-6	17	5	-5	i	/	2	11
Cc1ccc2nc(N(CCN(C)C)C(=O)c3ccc4ccccc4c3)sc2c1	/	-12	2	5	+	-20	-6	-1
O=C(CSc1ccc2c(c1)OCCO2)Nc1ccc(Br)cc1	/	-7	1	-2	i	-7	3	-7
COc1ccc(NC(=O)C(c2ccc(C)cc2)N(C)C(=O)c2ccc(=O)[nH]c2)cc1 (centres undefined)	-106	-6	-7	-1	i	2	-4	-1

3 entries picked at random from those above:
SMILES	Env fusion inh	CSC inhib	MT1-MMP act inh	MT1-MMP act inh RFP	Rce1 inh	UUG fidelity	eIF4H inh	PABP polyA inh	others
Oc1ccc(-c2csc(Nc3ccccn3)n2)c(O)c1	-214	103*	1	-2	/	-18	-6	8
CCCCCCN1C[C@H](n2cc(COC(=O)c3ccccc3)nn2)[C@@H](O)C[C@@H]1c1ccc(C)cc1	33	/	0	-4	/	5	/	/
Clc1cccc(-c2nc3ccc(Cl)cn3c2Cc2ccccc2)c1	-55	/	-5	-7	/	-30	/	/

Carrying on:
SMILES	Env fusion inh	CSC inhib	MT1-MMP act inh	MT1-MMP act inh RFP	Rce1 inh	UUG fidelity	eIF4H inh	PABP polyA inh	others
COc1ccc(CCN2CC(C(=O)NCC3(O)CCCCC3)CCC2=O)cc1 (centres undefined)	-2	-11	5	1	i	-9	-8	-2
O=c1c2c(C(F)(F)F)cc(C(F)(F)F)nc2[nH]n1-c1ccccc1	/	10	12	2	i	-15	6	7
Cc1ccc(C(=O)CCC(=O)NN2C(=O)NC3(CCCCC3)C2=O)cc1	-9	-2	1	5	/	/	/	/
CCCNC(=O)C(Cc1ccc(Cl)cc1)NC(=O)c1ccc(C#N)cc1 (centres undefined)	-5	-21	3	1	/	-5	/	/
COc1ccc(/C=N\NC(=O)c2ccccc2F)cc1COc1ccc(F)cc1F	-13	71	9	-4	i	-10	8	16
COc1cc(/C=N/NC(=O)c2cc(C3CC3)[nH]n2)cc(OC)c1OC	1	-6	6	6	i	-9	-14	-4
COc1cc(OC)cc(-c2nnc(N(C)C(=O)c3ccncc3)s2)c1	5	-13	-3	-3	i	/	8	3
CC1(c2nnc(-c3ccccc3)o2)CC(c2ccccc2)=NO1 (centres undefined)	-47	-4	-2	1	i	6	/	/
CCS(=O)(=O)c1ccc2oc(SCC(=O)N3c4ccccc4CC3C)nc2c1 (centres undefined)	-4	-4	0	0	i	-2	5	5
O=C(COc1ccc(Br)cc1F)NCC1(N2CCCCC2)CCCCC1	-36	1	5	-1	/	-10	/	/
CCOC(=O)c1csc(-c2csc(CCNC(=O)c3ccccc3)n2)n1	-35	/	4	-1	/	-17	/	/
COc1ccc2oc(C(=O)OCC(=O)Nc3cc(S(=O)(=O)N4CCOCC4)ccc3OC)c(C)c2c1	-39	-11	-2	2	i	-6	/	/

Three consecutive records out of the list so far, quoted:
SMILES	Env fusion inh	CSC inhib	MT1-MMP act inh	MT1-MMP act inh RFP	Rce1 inh	UUG fidelity	eIF4H inh	PABP polyA inh	others
COc1ccc(CCN2CC(C(=O)NCC3(O)CCCCC3)CCC2=O)cc1 (centres undefined)	-2	-11	5	1	i	-9	-8	-2
O=c1c2c(C(F)(F)F)cc(C(F)(F)F)nc2[nH]n1-c1ccccc1	/	10	12	2	i	-15	6	7
Cc1ccc(C(=O)CCC(=O)NN2C(=O)NC3(CCCCC3)C2=O)cc1	-9	-2	1	5	/	/	/	/

Ordered by length of the SMILES (ascending): part of the list above
SMILES	Env fusion inh	CSC inhib	MT1-MMP act inh	MT1-MMP act inh RFP	Rce1 inh	UUG fidelity	eIF4H inh	PABP polyA inh	others
O=C(Cc1ccsc1)Nc1ccc(S(=O)(=O)C(F)F)cc1	1	-1	5	-1	i	-15	6	-4
COc1cc2c(cc1OC)CN(CC(=O)Nc1ccccc1SC)CC2	25	-9	2	-3	i	/	-3	11
CCOC(=O)CSc1cc(CSc2ccccc2)nc(-c2ccccc2)n1	/	-1	5	3	i	/	-3	6
O=C(Nc1ccc(Cl)cn1)C1CCCN1S(=O)(=O)c1ccccc1 (centres undefined)	/	-4	0	-9	i	-8	0	-3
COc1ccc(CCN2CC(C(=O)NCC3(O)CCCCC3)CCC2=O)cc1 (centres undefined)	-2	-11	5	1	i	-9	-8	-2
Cc1ccc(C(=O)CCC(=O)NN2C(=O)NC3(CCCCC3)C2=O)cc1	-9	-2	1	5	/	/	/	/
O=S(=O)(Nc1nc2ccccc2nc1NCC1CCCO1)c1cc(Cl)ccc1Cl (centres undefined)	-6	17	5	-5	i	/	2	11

Next section.
SMILES	Env fusion inh	CSC inhib	MT1-MMP act inh	MT1-MMP act inh RFP	Rce1 inh	UUG fidelity	eIF4H inh	PABP polyA inh	others
Cc1cccc(C)c1NC(=S)N1CCCN(C)CC1	-1	/	2	3	i	/	3	3
CCN1CCN(C(=O)C2CCN(Cc3cc(Cl)ccc3O)CC2)CC1	/	-4	4	3	i	-14	-8	11
FC(F)(F)C1=CC(c2ccccc2)=NCCN1	/	10	1	2	i	-7	18	1
CC(=O)N1c2ccc(S(=O)(=O)N3CCCC(C(=O)NCc4ccccc4)C3)cc2CC1C (centres undefined)	23	9	2	-14	i	-9	4	-5
Cn1c(=O)n(Cc2ccc(Cl)cc2)c(=O)c2c1nc1n2CCN1Cc1ccco1	-50	-3	8	-5	i	1	7	-6

This is a subset, so the mix of outcomes need not match the whole.
